TRPML1 blocker = qHTS for Inhibitors of the Human Mucolipin Transient Receptor Potential 1 (TRPML1); 0.02% of 390,000 active; AID 624415, 2012; TRPML1-inducible cells, Ca2+ dye fluorescence, FDSS; stronger effect = lower value; inhibition of EC80 agonist-evoked calcium signal; Mucolipin-1 (Homo sapiens), Q9GZU1; activity change, negative = inhibition, % (concentration not given with the values); in the data active means activity change below about -50%; inconclusive means about -30% to -50%; inactive means above about -30%;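 further: stimulus is agonist 54-4 at its EC80 concentration; on the % scale 0 is the no-effect control and ±100 the full control effect; compound concentration not given in the record; the text of the record puts the active cut at -80%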
Target sequence (Q9GZU1 whole entry, looked up): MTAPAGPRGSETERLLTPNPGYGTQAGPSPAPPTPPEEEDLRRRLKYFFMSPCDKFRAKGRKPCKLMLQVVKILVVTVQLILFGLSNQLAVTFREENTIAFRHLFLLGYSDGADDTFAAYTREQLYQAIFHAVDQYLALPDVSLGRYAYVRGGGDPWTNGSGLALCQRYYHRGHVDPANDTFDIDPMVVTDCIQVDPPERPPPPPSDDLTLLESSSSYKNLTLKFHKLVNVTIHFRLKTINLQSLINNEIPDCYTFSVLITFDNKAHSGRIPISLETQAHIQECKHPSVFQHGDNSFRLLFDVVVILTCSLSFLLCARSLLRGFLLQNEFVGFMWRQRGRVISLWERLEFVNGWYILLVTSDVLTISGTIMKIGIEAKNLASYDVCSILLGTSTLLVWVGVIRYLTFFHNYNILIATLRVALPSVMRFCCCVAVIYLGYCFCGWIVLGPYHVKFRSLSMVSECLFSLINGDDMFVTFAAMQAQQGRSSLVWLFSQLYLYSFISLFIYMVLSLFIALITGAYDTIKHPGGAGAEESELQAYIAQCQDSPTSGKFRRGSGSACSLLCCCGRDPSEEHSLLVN
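TRPML1-DL cells, Tet-induced overnight (~16 h, 37 °C) at 1,500 cells/well, were loaded with Ca8 no-wash dye plus quencher for 45-90 min at room temperature. Compounds were pinned during FDSS kinetic reading; agonist 54-4 at EC80 (4 uM final) then added.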
CtBP-E1A inh = qHTS Assay for Inhibitors of the CtBP/E1A Interaction | CtBP / adenovirus E1A interaction (AlphaScreen) | AlphaScreen GST-E1A/His-CtBP binding, 1536-well; stronger effect = lower value; control for the full effect not named in the record | activity change, % (concentration not given with the values) | 0.49% of 340,000 active; in the data active means activity change below about -65%; inconclusive means about -30% to -65%; inactive means above about -30%; further: on the % scale 0 is the no-effect control and ±100 the full control effect
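GST-E1A and His-tagged CtBP (125 nM each as 5X stock) were preincubated with pin-transferred compound for 2 h at 37 °C in the dark, then glutathione donor and nickel acceptor beads were added for 1 h before AlphaScreen reading.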
Six1-Eya2 blk = qHTS Assay for Inhibitors of the Six1/Eya2 Interaction | Homeobox protein SIX1 (Homo sapiens) + Protein phosphatase EYA2 (Homo sapiens), … | AlphaScreen GST-Six1/His-Eya2 binding, biochemical; stronger effect = lower value; control for the full effect not named in the record | activity change, % (no concentration beside the values) | 0.56% of 360,000 active; in the data active = activity change below about -65%; inconclusive = about -30% to -65%; inactive = above about -30%; further: on the % scale 0 is the no-effect control and ±100 the full control effect; compound concentration not given in the record
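Six1/Eya2 binding was read as AlphaScreen signal after compounds were pinned into GST-Six1 plus His-tagged Eya2 (5X stock 250/500 nM) in pH 8.0 Tris/NaCl/TCEP buffer, beads added, then incubated 1 h, 37 C, dark.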
TRPML1 agonist = qHTS for Agonists of the Human Mucolipin Transient Receptor Potential 1 (TRPML1); TRPML1-expressing cells, Ca2+ dye fluorescence, FDSS; host cell line not named in the record; reference of the full effect not given here; activation, % (no concentration beside the values); 0.12% of 410,000 active; AID 624414, 2012; in the data active = activation above about 50%; inconclusive = about 30% to 50%; inactive = below about 30%; further: 0% is about no effect; the text of the record puts the active cut at 80%
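TRPML1-DL cells, Tet-induced overnight (~16 h, 37 degrees C), loaded 45-90 min at room temperature with Ca8 no-wash calcium dye plus quencher. FDSS fluorescence: 10 s baseline, compound pin-transfer, 110 s agonist read, then EC80 54-4 (4uM final) and 110 s antagonist read.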
TRPV1 potentiator = HTS Assay for Compounds that Act as Potentiators of the Vanilloid Receptor 1 | Transient receptor potential cation channel subfamily V member 1 (Homo sapiens), Q8NER1 | TRPV1-expressing cells, Fluo-8 calcium influx, capsaicin EC20 potentiation; host cell line not named in the record; control for the full effect not named in the record | potentiation, % at 8.33 µM | 0.02% of 320,000 active | AID 540277, 2011; active means potentiation above 80%; inconclusive means 30% to 80%; inactive means below 30%; further: 0% is about no effect
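Fluo-8 calcium influx in TRPV1-expressing cells, kinetic read (ex 480/em 520 nm). Compound added and read 3 min for agonist activity, followed by capsaicin at EC20 final and 2 min further read for enhancement.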
D2 PAM = Beta-Arrestin HTS for Positive Allosteric Modulators of the Human D2 Dopamine Receptor: Potentiators; DiscoveRx D2 beta-arrestin cells, luminescence, 90 min; 100% = 57 uM dopamine signal; potentiation, % (concentration not given with the values); 0.23% of 360,000 active; AID 624464, 2012; active = potentiation of 50% or more; inconclusive = 30% to 50%; inactive = 30% or less;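 further: compound concentration not given in the record; tested on top of an EC20 dose of dopamine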
Target sequence (P14416 whole entry, looked up): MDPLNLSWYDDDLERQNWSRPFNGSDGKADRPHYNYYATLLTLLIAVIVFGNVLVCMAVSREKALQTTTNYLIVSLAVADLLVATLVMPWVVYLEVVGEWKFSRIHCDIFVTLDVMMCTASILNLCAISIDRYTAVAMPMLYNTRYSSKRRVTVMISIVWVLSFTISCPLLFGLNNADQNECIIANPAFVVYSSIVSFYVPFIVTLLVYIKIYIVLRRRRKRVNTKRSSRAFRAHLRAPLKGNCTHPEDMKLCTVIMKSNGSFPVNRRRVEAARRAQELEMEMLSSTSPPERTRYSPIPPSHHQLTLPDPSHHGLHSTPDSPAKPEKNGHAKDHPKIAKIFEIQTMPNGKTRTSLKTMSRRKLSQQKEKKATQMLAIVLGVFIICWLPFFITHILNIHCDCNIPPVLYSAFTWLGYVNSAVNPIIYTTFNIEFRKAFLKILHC
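PathHunter D2 cells, attached overnight at 37 deg C, received compound in DMSO plus dopamine at EC20 (50 nM final) for 90 min at 37 deg C. Beta-arrestin recruitment was read as luminescence after 1 h with detection reagent at ambient temperature.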
The depositor's hits bear a star.

`COc1ccc(NC(=O)N(CCCN(C)C)Cc2cc3cc(OC)ccc3[nH]c2=O)cc1` gave TRPML1 blocker -1, CtBP-E1A inh -3, Six1-Eya2 blk -5, TRPML1 agonist 0.2, TRPV1 potentiator 6 and D2 PAM -28.
`O=C(CN(Cc1ccco1)C(=O)c1cc(=O)[nH]c2ccccc12)Nc1ccccc1Br` gave TRPML1 blocker -12, CtBP-E1A inh -1, Six1-Eya2 blk -6, TRPML1 agonist -0.8, TRPV1 potentiator 14 and D2 PAM -19.
`C=CCN1[C@@H](Cc2ccccc2)COc2cc(N3CCSCC3)ccc2S1(=O)=O` gave CtBP-E1A inh -4, Six1-Eya2 blk -14 and TRPML1 agonist -0.5.
`CC(C)C[C@H]1CN(CCCC[C@@H]2CNC(=O)C(=O)N2Cc2ccccc2)C(=O)C(=O)N1Cc1ccccc1` gave CtBP-E1A inh 5, Six1-Eya2 blk -6 and TRPML1 agonist -0.6.
Screening CC(=O)N1CCN(c2ccccc2NC(=O)c2ccc3ccccc3c2)CC1 returned TRPML1 blocker 11, CtBP-E1A inh -1, Six1-Eya2 blk 7, TRPML1 agonist -0.5, TRPV1 potentiator -2 and D2 PAM 4.
`O=C(CCCc1cccs1)N1CCN(S(=O)(=O)c2ccccc2Br)CC1` gave TRPML1 blocker 40, CtBP-E1A inh 4, Six1-Eya2 blk 0, TRPML1 agonist 0.9, TRPV1 potentiator -31 and D2 PAM -1.
Screening Cc1[nH]c2ccc(-c3nnc(SCC(=O)NCc4ccco4)n3Cc3ccccc3)cc2c1C returned TRPML1 blocker -8, CtBP-E1A inh -27, Six1-Eya2 blk -18, TRPML1 agonist 3.7, TRPV1 potentiator inconclusive and D2 PAM -7.
Screening Cc1ccc(-n2c(C)cc(/C=N/NC(=O)c3ccncc3)c2C)c(C)c1 returned TRPML1 blocker 5, CtBP-E1A inh -20, Six1-Eya2 blk -9, TRPML1 agonist 0.0, TRPV1 potentiator -2 and D2 PAM -3.
CC[n+]1c(/C=C2\Sc3ccccc3N2C)ccc2cccc(C)c21 was read as TRPML1 blocker -12, CtBP-E1A inh -25, Six1-Eya2 blk inconclusive, TRPML1 agonist 29, TRPV1 potentiator 19 and D2 PAM -17.
For O=C(N/N=C/c1ccco1)c1ccc(N2CCCC2=O)cc1 the results were TRPML1 blocker 6, CtBP-E1A inh -4, Six1-Eya2 blk -3, TRPML1 agonist -0.6, TRPV1 potentiator -7 and D2 PAM -5.
CN(C)c1ccc(C(=O)/C=C/c2ccco2)cc1 was read as TRPML1 blocker 13, CtBP-E1A inh 0, Six1-Eya2 blk -2, TRPML1 agonist 0.4, TRPV1 potentiator -4 and D2 PAM -1.
Screening CC(C)NS(=O)(=O)c1ccc(CCC(=O)N2CCc3ccccc3C2)cc1 returned TRPML1 blocker 14, CtBP-E1A inh 1, Six1-Eya2 blk 0, TRPML1 agonist 2.9, TRPV1 potentiator -6 and D2 PAM -7.
`CCOC(=O)N1CCN(C(=O)CSc2ccc(-c3ccncc3)nn2)CC1` gave TRPML1 blocker 11, CtBP-E1A inh 4, Six1-Eya2 blk 17, TRPML1 agonist -0.7, TRPV1 potentiator 1 and D2 PAM -10.
COC(=O)c1c(NC(=O)CSc2ncnc3[nH]ncc23)sc2c1CCC2 was read as TRPML1 blocker -7, CtBP-E1A inh -19, Six1-Eya2 blk -3, TRPML1 agonist -0.5, TRPV1 potentiator -1 and D2 PAM 3.
`O=C(NC(=S)Nc1ccc(Cc2ccncc2)cc1)c1ccc(F)cc1` gave TRPML1 blocker 23, Six1-Eya2 blk 1, TRPML1 agonist 0.7, TRPV1 potentiator -7 and D2 PAM -9.
For COc1cccc(CN2CCN(Cc3cccn3-c3cccnc3)CC2CCO)c1 (stereo not given) the results were TRPML1 blocker 29, Six1-Eya2 blk 5, TRPML1 agonist -0.4, TRPV1 potentiator 10 and D2 PAM -9.
Screening COc1cc(C(=O)Nc2cc(Cl)ccc2C)c(-n2cnnn2)cc1OC returned TRPML1 blocker -7, CtBP-E1A inh 1, Six1-Eya2 blk 0, TRPML1 agonist -0.3, TRPV1 potentiator 4 and D2 PAM -2.
Cc1cc(SCc2ccccc2)nc(=O)[nH]1 was read as TRPML1 blocker -3, CtBP-E1A inh 3, Six1-Eya2 blk -3, TRPML1 agonist -0.4, TRPV1 potentiator 2 and D2 PAM -19.
For CCN(C(C)=O)c1ccc(Oc2nc(OC)cc(OC)n2)cc1 the results were TRPML1 blocker 30, CtBP-E1A inh 8, Six1-Eya2 blk 9, TRPML1 agonist 2.7, TRPV1 potentiator 0 and D2 PAM -12.
Screening CC(=O)OCc1cc(-c2nn(C)c(=O)c3ccccc23)ccc1C returned TRPML1 blocker 0, CtBP-E1A inh -17, Six1-Eya2 blk 6, TRPML1 agonist -0.2, TRPV1 potentiator 13 and D2 PAM -2.
`CCc1cc(C(=O)OC)c(NC(=O)CC2Nc3cc(C)c(C)cc3NC2=O)s1` (stereo not given) gave TRPML1 blocker 10, CtBP-E1A inh -4, Six1-Eya2 blk 6, TRPML1 agonist 1.5, TRPV1 potentiator 1 and D2 PAM -9.
`CC(C)(C)C(=O)NC(CC(=O)O)c1ccccc1` (stereo not given) gave TRPML1 blocker 2, CtBP-E1A inh 5, Six1-Eya2 blk 0, TRPML1 agonist -0.5, TRPV1 potentiator 0 and D2 PAM 0.
`COc1ccccc1C(O)c1ncc(-c2cccc(C(F)(F)F)c2)[nH]1` (stereo not given) gave CtBP-E1A inh -1, Six1-Eya2 blk -5, TRPML1 agonist -1.3 and D2 PAM -3.
CCn1c(SCc2nc(-c3ccccc3)no2)nc2ccccc21 was read as TRPML1 blocker -1, CtBP-E1A inh 0, Six1-Eya2 blk 22, TRPML1 agonist 0.8 and D2 PAM 1.
Screening C=CCn1c2ccccc2c2nnc(SCCCn3c(=O)[nH]c4ccccc43)nc21 returned TRPML1 blocker 6, CtBP-E1A inh -8, Six1-Eya2 blk -24, TRPML1 agonist 3.7, TRPV1 potentiator -4 and D2 PAM inconclusive.
CCCOc1ccc(C(=O)CCN2CCN(C(=O)OCC)CC2)cc1 was read as TRPML1 blocker 66, CtBP-E1A inh -10, Six1-Eya2 blk -18, TRPML1 agonist 0.5, TRPV1 potentiator -21 and D2 PAM 2.
Cc1ccc(S(=O)(=O)NCC(=O)OCC(=O)N2N=C(c3ccc(Cl)cc3)CC2c2ccco2)cc1C (stereo not given) was read as TRPML1 blocker 6, CtBP-E1A inh -3, Six1-Eya2 blk -19, TRPML1 agonist 0.3, TRPV1 potentiator 1 and D2 PAM -30.
Screening Cc1ccc(OCCCC(=O)Nc2nnc(C3CCCO3)s2)c(C)c1 (stereo not given) returned TRPML1 blocker 27, CtBP-E1A inh 7, Six1-Eya2 blk 1, TRPML1 agonist 1.0, TRPV1 potentiator 13 and D2 PAM 2.
`Cc1ccc(NC(=O)C2C3C=CC4(O3)C2C(=O)N(CCCN2CCOCC2)C4C(=O)NC2CCCCC2)cc1Cl` (stereo not given) gave TRPML1 blocker 36, CtBP-E1A inh 2, Six1-Eya2 blk 12, TRPML1 agonist -0.3, TRPV1 potentiator -11 and D2 PAM -8.
`O=C(NCCCN1CCC(Cc2ccccc2)CC1)c1ccc(CS(=O)c2ccccc2Cl)o1` (stereo not given) gave TRPML1 blocker 2, CtBP-E1A inh -3, Six1-Eya2 blk -3, TRPML1 agonist 0.2 and D2 PAM -49.
Screening CC(CN1CCCCC1)OC(=O)Cc1ccc(Cl)cc1 (stereo not given) returned TRPML1 blocker -10, CtBP-E1A inh -2, Six1-Eya2 blk 2, TRPML1 agonist 4.0, TRPV1 potentiator 6 and D2 PAM -34.
`CCOc1ccc(C(=O)N2CCN(c3cccc(C)c3C)CC2)cc1` gave TRPML1 blocker -7, CtBP-E1A inh -2, Six1-Eya2 blk 5, TRPML1 agonist 3.7, TRPV1 potentiator -16 and D2 PAM -14.
O=C(COC(=O)C1CC(=O)N(Cc2ccccc2)C1)Nc1cccc([N+](=O)[O-])c1 (stereo not given) was read as TRPML1 blocker -2, Six1-Eya2 blk -1, TRPML1 agonist -0.7 and D2 PAM -3.
Screening O=S(=O)(/N=C(/Nc1cccc2ccccc12)c1ccccc1)c1ccccc1 returned TRPML1 blocker 10, CtBP-E1A inh -3, Six1-Eya2 blk -6, TRPML1 agonist 4.7, TRPV1 potentiator -15 and D2 PAM -5.
Cc1ccc(C(=O)N2CCN(S(=O)(=O)c3ccc(C)cc3)CC2)cc1 was read as TRPML1 blocker -19, CtBP-E1A inh 6, Six1-Eya2 blk 10, TRPML1 agonist -0.6, TRPV1 potentiator 8 and D2 PAM 3.
Screening Cc1cccc(Nc2nnc(SCC(=O)Nc3cccc(S(=O)(=O)N4CCCCC4)c3)s2)c1 returned TRPML1 blocker -13, CtBP-E1A inh -8, Six1-Eya2 blk -21, TRPML1 agonist 0.1, TRPV1 potentiator 7 and D2 PAM -28.
Screening COc1ccc(-n2c(=O)c(CCC(=O)N(C)Cc3ccccc3C)nc3ccccc32)cc1 returned TRPML1 blocker -12, CtBP-E1A inh 5, Six1-Eya2 blk -4, TRPML1 agonist 2.0, TRPV1 potentiator 2 and D2 PAM -4.
For C[C@@H]1CN([C@@H](C)CO)C(=O)c2cc(NC(=O)C3CCCCC3)ccc2O[C@@H](C)CCCCO[C@@H]1CN(C)C(=O)CCCN(C)C the results were TRPML1 blocker 5, CtBP-E1A inh 5, Six1-Eya2 blk 6, TRPML1 agonist -0.7 and D2 PAM 7.
O=C(COC(=O)COc1ccccc1)Nc1ccccc1OC(F)F was read as TRPML1 blocker 1, CtBP-E1A inh 4, Six1-Eya2 blk 2, TRPML1 agonist 0.8, TRPV1 potentiator -23 and D2 PAM -4.
Screening C=CCn1c(SCC(=O)NC2CCS(=O)(=O)C2)nc2sc(CC)cc2c1=O (stereo not given) returned TRPML1 blocker 12, CtBP-E1A inh 2, Six1-Eya2 blk 3, TRPML1 agonist 0.8, TRPV1 potentiator 0 and D2 PAM 0.
NS(=O)(=O)c1ccc(-n2ncc3c(=O)[nH]c(SCC(=O)Nc4nccs4)nc32)cc1 was read as TRPML1 blocker 19, CtBP-E1A inh -22, Six1-Eya2 blk -9, TRPML1 agonist -0.4, TRPV1 potentiator 11 and D2 PAM -6.

2 consecutive records already listed, quoted:
O=C(COC(=O)C1CC(=O)N(Cc2ccccc2)C1)Nc1cccc([N+](=O)[O-])c1 (stereo not given) was read as TRPML1 blocker -2, Six1-Eya2 blk -1, TRPML1 agonist -0.7 and D2 PAM -3.
Screening O=S(=O)(/N=C(/Nc1cccc2ccccc12)c1ccccc1)c1ccccc1 returned TRPML1 blocker 10, CtBP-E1A inh -3, Six1-Eya2 blk -6, TRPML1 agonist 4.7, TRPV1 potentiator -15 and D2 PAM -5.
